Vaccinia Venus: qHTS for Stage-Specific Inhibitors of Vaccinia Orthopoxvirus: Venus Reporter Primary qHTS. Potency, µM (top dose mostly 36.5 µM), for the others: at the highest dose activity change, negative = inhibition, hits mostly inhibitors. 0.46% of 330,000 active. AID 720580, 2013. Vaccinia virus Venus reporter expression, fluorescence; active means well fitted inhibition curve with a large enough effect; inconclusive means small, poorly fitted or top-dose-only effect; inactive means no such curve, though single readings can be large or run the other way; tested in A549 cells; note: nearly all actives have a fitted effect of over 30% in size; inactives centre near -10
VACV mCherry inh: qHTS for Stage-Specific Inhibitors of Vaccinia Orthopoxvirus: mCherry Reporter Primary qHTS; Vaccinia virus mCherry reporter infection, fluorescence; about a quarter of the inactives have no number; Potency, µM (series often up to 36.5 µM), without a hit: at the highest dose activity change, negative = inhibition, hits mostly inhibitors; 0.63% of 310,000 active; active = well fitted inhibition curve with a large enough effect; inconclusive = small, poorly fitted or top-dose-only effect; inactive = no such curve, though single readings can be large or run the other way; tested in A549 cells; note: nearly all actives have a fitted effect of over 35% in size; inactives centre near -10
Starred values were filed as active, the others as inactive; & = joins results of further samples; [ ] = another dose, or the depositor's remark. % is set by controls: 0 for no effect and ±100 for the full control effect; potency is the fitted concentration of half-maximal effect.

Screening CCOC(=O)c1ccc(Nc2sc(C(=O)c3cccc([N+](=O)[O-])c3)c(N)c2C#N)cc1 returned Vaccinia Venus inconclusive and VACV mCherry inh -25.3%.
Screening CCCCNC(=O)N1CCN(C(=O)C2CCCO2)CC1 (stereo not given) returned Vaccinia Venus -22.5% and VACV mCherry inh -0.8%.
For CCCCn1nc(C(=O)NC2CCCCCC2)c2ccccc2c1=O the results were Vaccinia Venus 0.7% and VACV mCherry inh inactive.
Screening Cc1nc(SC2CC(=O)N(c3cc(Cl)cc(Cl)c3)C2=O)nc2c1CCCC2 (stereo not given) returned Vaccinia Venus -18.5% and VACV mCherry inh inactive.
`NC1=NC[C@H](Cc2ccccc2)N1CCc1cc(C(F)(F)F)cc(C(F)(F)F)c1` gave Vaccinia Venus inconclusive and VACV mCherry inh inconclusive.
Cc1ccccc1Nc1c(-c2ccc(O)cc2)nc2c(C)cccn12 was read as Vaccinia Venus -24.0% and VACV mCherry inh -22.5%.
`Cc1cc(C)c(NC(=O)C2=CCN(S(=O)(=O)c3ccc(F)cc3)CC2)c(C)c1` gave Vaccinia Venus -13.2% and VACV mCherry inh 6.9%.
`COc1cc2c(=O)c(S(=O)(=O)c3ccc(F)cc3)cn(Cc3ccccc3C)c2cc1OC` gave Vaccinia Venus -11.7% and VACV mCherry inh -9.0%.
For Cc1cc(C)c(-n2nnnc2SC(C)C)c(C)c1 the results were Vaccinia Venus -3.7% and VACV mCherry inh -19.7%.
CCc1ccc(-c2cc(C)no2)cc1S(=O)(=O)Nc1ccc(Cl)cn1 was read as Vaccinia Venus 4.3%&-7.6% and VACV mCherry inh -10.3%&-11.5%.
COc1cccc(/C=C2/C(=O)NN(c3ccc(C)c(C)c3)C2=O)c1 was read as Vaccinia Venus -16.1% and VACV mCherry inh inconclusive.
`CCc1nnc(NC(=O)c2ccc(-c3ccc(Cl)cc3)o2)s1` gave Vaccinia Venus 7.6%.
CCC1Oc2ccc(C)cc2N(CC(=O)NC2CCCCC2)C1=O (stereo not given) was read as Vaccinia Venus 0.0% and VACV mCherry inh -2.8%.
c1ccc(-c2nc(N3CCOCC3)sc2-c2ccccc2)cc1 was read as Vaccinia Venus -3.7% and VACV mCherry inh -28.9%.
CNc1c(NS(=O)(=O)c2cc(NC(C)=O)ccc2C)c(=O)oc2ccccc12 was read as Vaccinia Venus 10.4% and VACV mCherry inh -5.1%.
For COc1cccc(NC(=O)CN(C)C(=O)c2cc(-c3cccc(Br)c3)nc3ccccc23)c1 the results were Vaccinia Venus inconclusive and VACV mCherry inh -29.6%.
Screening O=C(O)C1CCCCC1C(=O)NCCc1ccncc1 (stereo not given) returned Vaccinia Venus -12.0%.
For COC(=O)C(O)(CC(=O)Nc1cc(OC)c(OC)c(OC)c1)C(F)(F)F (stereo not given) the results were Vaccinia Venus -4.1%.
Screening COC(=O)C1=C(c2ccc(Cl)c(C(F)(F)F)c2)C[C@@H]2CC[C@H]1N2C(=O)N1CCC(O)(c2ccc(Cl)cc2)CC1 returned Vaccinia Venus inconclusive and VACV mCherry inh -20.5%.
Cc1nc2sc(C(c3ccco3)N3CCOCC3)c(O)n2n1 (stereo not given) was read as Vaccinia Venus -13.2% and VACV mCherry inh inactive.

The closing five entries of the section before are carried over, then new ones follow:
For COc1cccc(NC(=O)CN(C)C(=O)c2cc(-c3cccc(Br)c3)nc3ccccc23)c1 the results were Vaccinia Venus inconclusive and VACV mCherry inh -29.6%.
Screening O=C(O)C1CCCCC1C(=O)NCCc1ccncc1 (stereo not given) returned Vaccinia Venus -12.0%.
For COC(=O)C(O)(CC(=O)Nc1cc(OC)c(OC)c(OC)c1)C(F)(F)F (stereo not given) the results were Vaccinia Venus -4.1%.
Screening COC(=O)C1=C(c2ccc(Cl)c(C(F)(F)F)c2)C[C@@H]2CC[C@H]1N2C(=O)N1CCC(O)(c2ccc(Cl)cc2)CC1 returned Vaccinia Venus inconclusive and VACV mCherry inh -20.5%.
Cc1nc2sc(C(c3ccco3)N3CCOCC3)c(O)n2n1 (stereo not given) was read as Vaccinia Venus -13.2% and VACV mCherry inh inactive.
Screening O=[N+]([O-])c1nn(-c2ccccc2)[n+]([O-])c1N1CCN(c2ccccc2F)CC1 returned Vaccinia Venus -4.9% and VACV mCherry inh -10.1%.
`Cc1ccc(OCC(O)CN2CCCC2)cc1` (stereo not given) gave Vaccinia Venus -9.3% and VACV mCherry inh inactive.
CC(=O)c1cccc(NC(=O)C(C)OC(=O)Cc2n[nH]c(=O)c3ccccc23)c1 (stereo not given) was read as Vaccinia Venus -6.1% and VACV mCherry inh -14.7%.
`Cc1cc(OCCCC(=O)NCc2cccs2)ccc1Cl` gave Vaccinia Venus 3.9% and VACV mCherry inh inactive.
Screening COc1ccc(N=C2SC(CC(=O)Nc3ccccc3)C(=O)N2CC2CCCO2)cc1 (stereo not given) returned Vaccinia Venus -15.0%.
CC1CCOC2(O1)C(=O)Nc1ccccc12 (stereo not given) was read as Vaccinia Venus -15.3% and VACV mCherry inh -27.1%.
`CCOc1ccc(NC(=O)Cn2c(=O)n(CCCS(=O)(=O)C3CCCCC3)c(=O)c3ccccc32)cc1` gave Vaccinia Venus -4.6% and VACV mCherry inh -3.2%.
For COc1ccc(C(=O)O)cc1S(=O)(=O)N1CCN(c2ccccn2)CC1 the results were Vaccinia Venus -2.0% and VACV mCherry inh inactive.
For COc1cccc(N2CCN(C(=O)C3CCN(S(=O)(=O)c4c(C)noc4/C=C/c4ccccc4F)CC3)CC2)c1 the results were Vaccinia Venus -6.8%[7.34 µM] and VACV mCherry inh 0.1%[7.34 µM].
Screening O=C(NC1CCCCCC1)c1cc(S(=O)(=O)N2CCCCC2)ccc1N1CCOCC1 returned Vaccinia Venus -0.7% and VACV mCherry inh inactive.
CCN(CC)S(=O)(=O)c1cccc(-c2n[nH]c(=S)n2/N=C/c2ccc(Br)cc2)c1 was read as Vaccinia Venus -10.8% and VACV mCherry inh -11.8%.
Screening COc1ccc(CN2CCn3ncc(C(=O)Nc4ccc(Cl)cc4Cl)c3C2=O)cc1 returned Vaccinia Venus -14.8%.
Nc1cc(C(=O)O)c(Oc2ccc(Cl)cc2Cl)cc1C(=O)O was read as Vaccinia Venus -1.0% and VACV mCherry inh -9.7%.
Screening COc1ccc(CN(CCCn2cnc3c(OC)ncnc32)CCCn2cnc3c(OC)ncnc32)cc1 returned Vaccinia Venus -18.5% and VACV mCherry inh -16.8%.
For C=CC(N)CCC(=O)O (stereo not given) the results were Vaccinia Venus 0.0% and VACV mCherry inh inactive.
O=C(O)CC1(CC(=O)Nc2cc3ccccc3cn2)CCCCC1 was read as Vaccinia Venus -9.4% and VACV mCherry inh -1.1%.
Screening CCOC(=O)c1c(-c2ccc(C)o2)csc1NC(=O)CSc1nncs1 returned Vaccinia Venus -5.0% and VACV mCherry inh -21.2%.
Screening CCOc1ccccc1Nc1nnc(SCC(=O)NCC2CCCO2)s1 (stereo not given) returned Vaccinia Venus -4.3% and VACV mCherry inh -20.3%.
For Fc1ccc2c(-c3cccc(C(F)(F)F)c3)c(-c3ccccc3)ncc2c1 the results were Vaccinia Venus -1.3% and VACV mCherry inh inactive.
For CCn1c(=O)c(C(=O)CN2CCc3ccccc32)c(N)n(Cc2ccccc2)c1=O the results were Vaccinia Venus 1.5% and VACV mCherry inh inconclusive.
For O=C(CC1C(=O)OCCN1Cc1ccccc1)Nc1cccc(Cl)c1 (stereo not given) the results were Vaccinia Venus 6.0% and VACV mCherry inh 1.1%.
Screening CCN1C(=O)[C@H]2[C@@H](c3ccc(C)cc3)N3C(=O)N(c4ccc(C(F)(F)F)cc4)C(=O)[C@@]3(CC(C)C)[C@H]2C1=O returned Vaccinia Venus -24.2% and VACV mCherry inh inactive.
For COC(=O)[C@@]12C[C@@H](CC(=O)NCc3ccccc3)C(=O)N(Cc3ccc4c(c3)OCO4)C1=CCC(C)(C)C2 the results were Vaccinia Venus inconclusive and VACV mCherry inh -28.3%.
COc1cccc(Cn2c(NCc3ccc(C)cc3)nc3c2c(=O)n(C)c(=O)n3C)c1 was read as Vaccinia Venus -5.0% and VACV mCherry inh inactive.
`CCC(=O)Nc1cccc(-n2nnnc2SCC(=O)NCc2ccco2)c1` gave Vaccinia Venus -14.0% and VACV mCherry inh -19.8%[1.46 µM].
`O=[N+]([O-])c1ccc(CN2C=NS(=O)(=O)c3ccccc32)cc1` gave Vaccinia Venus -22.2% and VACV mCherry inh -22.9%.
For COCCn1c(N)c(N(Cc2ccccc2)C(=O)C(C)Oc2ccc(Br)cc2)c(=O)[nH]c1=O (stereo not given) the results were Vaccinia Venus -5.6% and VACV mCherry inh -9.9%.
Screening CCOc1ccc(N=Nc2c(=O)[nH]n3c(C)cc(C)nc23)cc1 returned Vaccinia Venus -11.7% and VACV mCherry inh -14.4%.
`Cc1c(NC(=O)NC(C)N2C(=O)C3C4C=CC(C4)C3C2=O)c(=O)n(-c2ccccc2)n1C` (stereo not given) gave Vaccinia Venus 2.5% and VACV mCherry inh -5.8%.
COc1cc(C(=O)OCC(=O)NC(=O)C2CCCCC2)ccc1OC(F)F was read as Vaccinia Venus -10.0% and VACV mCherry inh inactive.
Screening Cc1cccc2sc(NC(=O)CSc3nnnn3C)nc12 returned Vaccinia Venus 2.8% and VACV mCherry inh -9.4%.
Screening CCN(CC)S(=O)(=O)c1cc(NC(=O)C(C)N(C)CC(=O)Nc2c(C)cccc2C)ccc1C (stereo not given) returned Vaccinia Venus -14.8% and VACV mCherry inh -28.7%.
For CC1C(=O)N2CCCc3cc(NC(=O)C(=O)NCc4ccccn4)cc1c32 (stereo not given) the results were Vaccinia Venus -11.7% and VACV mCherry inh inactive.
`CCc1cccc(C)c1NC(=O)CN1C(=O)C2(SCC(=O)N2c2cc(C)cc(C)c2)c2ccccc21` (stereo not given) gave Vaccinia Venus -12.8% and VACV mCherry inh -8.7%.
`CCCCNC(=O)CN(c1cc(C(F)(F)F)ccc1Cl)S(C)(=O)=O` gave Vaccinia Venus -1.2% and VACV mCherry inh -13.1%.
`Cc1cc(NC(=O)c2cc(-c3cccc(Cl)c3)on2)nn1Cc1ccc(Cl)cc1` gave Vaccinia Venus inconclusive and VACV mCherry inh inconclusive.
Screening C/C(=N\NC(=O)CC(C)C)c1c(C(F)(F)F)[nH]n(-c2nc3ccccc3s2)c1=O returned Vaccinia Venus -3.8% and VACV mCherry inh -9.0%.
COc1ccc(-c2cc(NC=O)c3ncc(-c4cccc(C(F)(F)F)c4)n3c2)c(OC)c1 was read as Vaccinia Venus inconclusive and VACV mCherry inh inconclusive.
`CCc1ccc(Nc2n[n+](C)c(-c3ccncc3)s2)cc1` gave Vaccinia Venus -11.5% and VACV mCherry inh -2.2%.
`CCn1c(SCC(=O)Nc2ccc3c(c2)OCO3)nnc1-c1ccccc1O` gave Vaccinia Venus -15.5% and VACV mCherry inh inactive.
For FC(F)(F)c1nc(Oc2ccccc2)c2ccccc2n1 the results were Vaccinia Venus -5.3%.
For COc1ccc(C(C(=O)Nc2ccc(C(C)C)cc2)N(C)C(=O)c2ccc(=O)[nH]c2)cc1 (stereo not given) the results were Vaccinia Venus 0.9% and VACV mCherry inh -14.0%.
Screening CC(C)c1ccc(Nc2nnc(SCC(=O)NCC3CCCO3)s2)cc1 (stereo not given) returned Vaccinia Venus -17.2% and VACV mCherry inh -12.2%.
Cc1cc(Cl)ccc1NC(=O)CN1CCN(C(=O)c2ccco2)CC1 was read as Vaccinia Venus -11.3% and VACV mCherry inh -9.4%.
For COc1ccc(N2CCN(C(=O)COC(=O)[C@@H](NC(=O)OCc3ccccc3)C(C)C)CC2)cc1 the results were Vaccinia Venus -11.2% and VACV mCherry inh -5.7%.
CN(C)C/C(Cl)=C(\Cl)c1ccccc1 was read as Vaccinia Venus -4.2%.
CCC(=O)N1CCc2cc(S(=O)(=O)NC(Cc3ccccc3)C(=O)Nc3ccccc3C)ccc21 (stereo not given) was read as Vaccinia Venus -4.6% and VACV mCherry inh -3.3%.
CCc1ccccc1NC(=O)c1cc(S(=O)(=O)N2CCc3ccccc32)cn1C was read as Vaccinia Venus -17.8% and VACV mCherry inh -14.0%.
For CC(C)c1c(C(=O)N/N=C/c2cccc(OCc3ccccc3)c2)nnn1-c1nonc1N the results were Vaccinia Venus -8.5% and VACV mCherry inh inactive.
For CCCCOc1ccc(NC(=O)Cn2c(=O)ccc3c(C)cc(C)nc32)cc1 the results were Vaccinia Venus inconclusive and VACV mCherry inh -10.6%.
`CC12CNCC(C)(CNC1)C2O` (stereo not given) gave Vaccinia Venus -7.5% and VACV mCherry inh -1.9%.
For Cc1cccc(Cn2c(=O)n(CCCCC(=O)NCc3ccc4c(c3)OCO4)c(=O)c3ccccc32)c1 the results were Vaccinia Venus -10.2% and VACV mCherry inh -12.1%.
Screening CCOc1ccccc1CN1C(=O)NC2(CCCCCC2)C1=O returned Vaccinia Venus 0.4% and VACV mCherry inh -4.3%.
Screening CC(C)OC(=O)c1ccc(COC(=O)c2cnccn2)cc1 returned Vaccinia Venus -2.5% and VACV mCherry inh 7.4%.
O=C(Nc1nnc(COc2ccc(Cl)cc2)s1)c1cccs1 was read as Vaccinia Venus -1.8% and VACV mCherry inh -7.8%.
For O=C1NCN(c2ccccc2)C12CCN(C(c1cccc3ccccc13)c1nnnn1Cc1ccccc1)CC2 (stereo not given) the results were Vaccinia Venus -6.6% and VACV mCherry inh -6.7%.
`COc1ccc(CNC(=O)c2oc3c(c2C)-c2nn(Cc4ccccc4Cl)cc2CC3)cc1` gave Vaccinia Venus -22.9% and VACV mCherry inh -24.8%.
CCCOc1ccc(-c2nc3ccc(Br)cc3c(=O)o2)cc1 was read as Vaccinia Venus -0.8% and VACV mCherry inh -6.8%.

Screening results deposited in PubChem BioAssay by National Center for Advancing Translational Sciences (NCATS).
